Screening data (PubChem BioAssay)
BasE inh = blocks the Acinetobacter baumannii siderophore enzyme BasE; AID 485350; hit rate 0.1% among 84,000; inhibition, % (test concentration not listed); purified BasE, fluorescence polarization binding displacement;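 active = both replicates above 25% with normal brightness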;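 note: 0% = negative plate control signal and 100% = positive plate control signal; stock transfer was 100 nL into about 30 µL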
LANA-nucl inh = inhibitors of KSHV LANA binding to nucleosomes | FITC-LANA1-23 / chicken nucleosome fluorescence polarization; active compounds read low | z-score (no concentration beside the values) | hit rate 0.3% among 51,000;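 active = both repeat wells score below -2 in polarization z-score versus plate sample wells, excluding overly bright wells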;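 note: 100 nL library stock added to about 30 µL; numbers are from one replicate; some results filed as inactive read as strong as hits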
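test system = FITC-LANA peptide and chicken nucleosomes | amount = 240 nM purified chicken nucleosomes (480 nM peptide binding sites), final | reagent = 50 nM FITC-LANA1-23 probe | medium = TEN-BT buffer, pH 7.5 | doses = single compound addition by pin transfer, 100 nL per well | timing = 10–45 min, room temperature | detection = fluorescence polarization | repeats = duplicate plates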
* hit, by the source's call; / = no result given. The list is partial; the hit share may differ from the screen's.

SMILES	BasE inh	LANA-nucl inh
N#Cc1ccccc1Sc1ccccc1C(=O)N(CC1CCCO1)C1CCS(=O)(=O)C1 (configuration not stated)	-0.6	/
O=S(=O)(c1ccc(F)cc1)n1nc(C(F)(F)F)c2cnccc21	-1.0	0.503
O=C(COC(=O)Cc1c[nH]c2ccccc12)NCc1ccco1	1.1	/
COc1ccc(CC(=O)Nc2cccc(-c3ccc(S(C)(=O)=O)nn3)c2)cc1	0.3	0.862
O=C(CCCOc1ccccc1)Nc1ccccc1	-1.4	-0.216
CCOC(=O)CN1CCCCCC1=O	1.0	/
COc1cccc(C2CC(=O)N(c3ccccc3)C3=C2C(=O)CCC3)c1OC (configuration not stated)	3.2	0.355
O=C1OCCC1OC(=O)C(c1ccccc1)c1ccccc1 (configuration not stated)	2.0	/
CN(C)C(=O)CN1c2cccc3cccc(c23)S1(=O)=O	1.8	/
CNc1nc(OCC(F)(F)C(F)F)nc(N(c2ccccc2)c2ccccc2)n1	5.2	-0.111
CCOCC(O)CN (configuration not stated)	2.7	-0.218
O=C(/C=C/c1ccco1)NC1CCCC1	1.1	/
Cc1ccc(S(=O)(=O)NCCNc2nccc(C(F)(F)F)n2)cc1	0.5	/
Cc1csc(=O)n1CC(=O)NC1CCC(C)CC1 (configuration not stated)	8.6	/
NNC(=O)CSc1ccc(Cl)cc1	0.8	/
Cc1cc2c(cc1S(N)(=O)=O)S(=O)(=O)CCC2	2.7	-0.027
COc1ccccc1NC(=O)Oc1ccc2ccncc2c1	0.8	/
Cn1c(=O)c2c(-c3ccc(Br)cc3)n(Cc3ccco3)cc2n(C)c1=O	-0.3	0.522
CCCCn1c(-c2nn(C)cc2Cl)n[nH]c1=S	2.2	-0.023
NC(=O)COC(=O)c1ccccc1Nc1ccccc1	0.7	/
O=C(NCCS(=O)(=O)NC1CCCCC1)c1ccccc1	-0.2	0.597
CSc1ccc(NC(=O)NCc2ccccc2)cc1	0.9	0.722
COc1ccccc1C(=O)NCc1ccc2c(c1)cc(C)n2C	-0.6	-0.784
O=C(O)c1cccc(N(CCO)CCO)c1	2.7	-0.825
CCN(CC)c1ccc2cc(C(N)=O)/c(=N\NC(=O)c3ccccc3)oc2c1	-2.2	-8.93
Later entries.
SMILES	BasE inh	LANA-nucl inh
Cc1cc(-n2c(C)cc(C(=O)CSc3ccc(F)c(F)c3)c2C)no1	-0.4	/
NC1=NC(=O)/C(=C\c2ccc3c(c2)OCO3)S1	4.8	/
COC(=O)C1=C(CN2CCOCC2)NC(=O)NC1c1cccc(OC)c1 (configuration not stated)	-0.8	-0.279
O=C(c1cnc(N2CCOCC2)nc1)N1CCN(c2ccc(F)cc2)CC1	0.9	1.38
NC1CCN(c2cccc(Cl)n2)CC1	/	0.256
CC(NC(=O)c1ccc[nH]c1=O)c1ccc(Cl)cc1Cl (configuration not stated)	-1.0	/
c1ccc(-c2cc(-c3ccco3)c(-c3ccccc3)nn2)cc1	1.1	-1.08
COC(=O)c1sc2nc(-c3ccco3)cc(C(F)(F)F)c2c1N	3.5	-1.13
c1ccc(CCNc2nc(-c3ccccc3)no2)cc1	-1.8	0.072
FC(F)(F)c1cccc(Nc2nnnn2C2CCCC2)c1	2.6	/
O=S(=O)(c1ccccc1)c1nc(Cc2ccccc2)oc1N1CCOCC1	-0.5	/
O=C(N/N=C/C1=C(N2CCOCC2)C(=C\c2ccccc2)/CC1)c1ccccc1	-0.8	/
CC(C)N=c1scc(-c2cccs2)n1/N=C/c1ccc(O)c(O)c1O	-1.6	/
O=c1cc(C(F)(F)F)nc(N2CCCC2)[nH]1	/	0.355
Cc1c(C#N)c(O)[nH]c(=O)c1N=Nc1ccc(S(N)(=O)=O)cc1	-1.6	-0.071
CN(C)c1ccc(CNCCCn2ccnc2)cc1	-0.5	-0.205
Cc1ccc(OC(C)C(=O)Nc2ccc3c(c2)OCCO3)cc1 (configuration not stated)	-0.6	0.891
O=C(O)Cc1nonc1NCNc1nonc1CC(=O)O	2.9	-0.593
CC1Cc2ccccc2N1C(=O)Cn1ncc(Cl)c(Cl)c1=O (configuration not stated)	0.8	/
COc1ccc(CNC(=O)C2=CC=CN3CCS(=O)(=O)N=C23)cc1	-1.6	/
CCOC(c1ccccc1)c1nc2ccccc2n1CC (configuration not stated)	2.9	0.583
CN(Cc1c(F)cccc1Cl)C(=O)CN1CCN(c2ncccn2)CC1	0.1	/
CCN(CC)C1=NC(Cc2ccccc2)C(=O)N1c1ccccc1OC (configuration not stated)	-0.1	-0.0445
O=S(=O)(c1ccc(C(F)(F)F)cc1)N1CCCN(c2ccc(C(F)(F)F)cn2)CC1	/	-1.31
CCc1nnc(NC(=O)CN(CC)CC)s1	-5.7	/
Remaining list, next part:
SMILES	BasE inh	LANA-nucl inh
O=c1[nH][nH]c2c1CCCC2	-5.5	0.517
CN(C(=O)C1=CC(c2ccco2)=NS(=O)(=O)N1C)c1ccccc1	-0.3	0.154
CNC(=O)NC(=O)CSc1nnc(-c2ccc(C(C)(C)C)cc2)n1C	-4.7	/
O=C(CSc1ncc(-c2ccccc2)n1CC1CCCO1)Nc1nccs1 (configuration not stated)	-1.7	-0.713
O=S(=O)(CCSc1nccc(-c2ccc(Cl)cc2)n1)c1ccc(Cl)cc1	0.5	/
O=C(C(Cc1ccccc1)N1C(=O)C2C3C=CC(C3)C2C1=O)N1CCCCC1 (configuration not stated)	2.3	-0.58
CC(C)C(=O)Nc1c(C(=O)N2CCN(Cc3ccccc3)CC2)oc2ccccc12	-1.2	/
CC(C)c1ccc(OCc2ccc(C(=O)Nc3cccnc3)o2)cc1	9.2	-0.754
FC(F)(F)c1nnc2c3ccccc3nc(-c3ccccc3)n12	0.7	0.223
CCOC(=O)c1nc(-c2ccccc2)oc1N(C)C	0.3	/
CC1(C)CC(=O)C(C(=S)Nc2ccccc2)=C(NCc2ccccc2)C1	1.4	/
CC(C)Cc1nn2c(=O)cc(O)nc2s1	1.6	-0.104
O=C(N/N=C/C=C/c1ccccc1)c1ccncc1	2.8	1.07
COc1cc(C#N)c2ccc3ccccc3c2c1	-2.9	/
COc1ccc(CCN=C(N)Nc2nc(C)cc(C)n2)cc1	-5.4	-0.117
c1cc2c(cc1CNc1ccc(N3CCOCC3)cc1)OCO2	-1.1	0.648
O=C(C1Cc2ccccc2CN1C(=O)c1ccccc1)N1CCN(c2ccccc2)CC1 (configuration not stated)	-1.1	/
Cc1ccccc1NC(=S)N1CCC(NC(=O)C(C)(C)C)CC1	1.1	-0.709
COc1ccc(-c2cc(-c3ccccc3)c(C#N)c(S(=O)Cc3ccccc3)n2)cc1 (configuration not stated)	3.1	/
CNC(=O)c1cc2c(=O)c3ccccc3oc2nc1C(F)(F)F	/	0.971
COc1ccc(NS(=O)(=O)c2ccc(C(=O)N(C)C)s2)cc1	-1.5	2.89
Cc1ccc(OC(=O)C2c3ccccc3Oc3ccccc32)cc1C	0.6	/
Nc1cc(-c2ccc(Cl)cc2)nn1S(=O)(=O)c1ccccc1	-2.5	2.31
O=C(Nc1nc(-c2cccs2)c(-c2cccs2)s1)C1(c2ccccc2)CC1	1.7	/
COc1ccccc1OC(C)C(=O)N(Cc1ccc(Cl)cc1)Cc1ccco1 (configuration not stated)	1.0	0.165
Additional structures
SMILES	BasE inh	LANA-nucl inh
CN(C)c1ccc(/C=C/C=C2C(=O)c3ccccc3C2=O)cc1	3.6	/
CN1/C(=C\C(=O)COc2ccc(C(N)=O)cc2)C(C)(C)c2ccccc21	-0.7	/
CN(Cc1ccccc1)C(=O)CSc1nnc(-c2ccccc2)o1	1.2	/
Cc1cc(NCCN)nc2ccccc12	-8.1	-0.14
COC(=O)CSc1nnc(-c2ccco2)n1Cc1ccco1	-0.9	0.236
CNC(=O)CSc1nnc2[nH]c(=O)cc(C)n12	-2.9	2.51
N#CCOC1OCCOC1OCC#N (configuration not stated)	-0.9	/
CCn1nnc2cc(C(=O)O)ccc21	0.8	/
CC1(C)Oc2ccccc2C2CC(c3ccccc3)=NN21 (configuration not stated)	-5.4	/
O=c1oc2ccc(Br)cc2cc1-c1ccc(S(=O)(=O)N2CCOCC2)s1	4.2	/
CC(C)(C)C(=O)Cn1nnc(-c2cccc(C(F)(F)F)c2)n1	-1.8	/
Cc1noc(C)c1COc1cccc(C(F)(F)F)c1	2.5	/
O=C(c1ccccc1)c1nc2ccccc2oc1=O	18.0	/
CCOC(=O)N1CCN(CC(O)COc2ccccc2C(C)C)CC1 (configuration not stated)	1.6	-0.454
Cc1ccc(C(=O)Nc2ccc3oc(-c4cccnc4)nc3c2)cc1	0.0	-0.537
Cc1ccc(O)c(NC(=O)c2ccc3c(c2)C(=O)N(Cc2ccco2)C3=O)c1	2.2	-0.75
COCC(C)NCc1ccc(SC)cc1 (configuration not stated)	4.6	0.182
COC(=O)c1c(F)c(F)c(Oc2ccc(C)cc2)c(F)c1N1CCCC1	4.1	0.39
CSc1nnc(-c2ccc(Cl)cc2Cl)n1Cc1ccco1	1.7	/
COc1cccc(-c2cc(C(=O)N3CCCC3)no2)c1	0.2	-0.546
COc1ccc2c(c1)sc1nc(-c3ccc(C)o3)c(NC3CCCCC3)n12	2.4	-1.51
CCCS(=O)(=O)Nc1cccc(-c2cn3c(n2)SCC3)c1	-0.1	0.619
Nn1c(Cc2ccccc2F)nnc1SCC(=O)N1CCc2ccccc2C1	1.4	/
O=C(c1ccccc1)N1CCN(C(=O)C2CCCCN2S(=O)(=O)c2ccccc2)CC1 (configuration not stated)	2.3	/
CCCC(CC(=O)O)CC(=O)O	1.5	-0.675

Ordered by the number under LANA-nucl inh (lowest first): 3 of the compounds above
Compound,LANA-nucl inh
COc1ccc2c(c1)sc1nc(-c3ccc(C)o3)c(NC3CCCCC3)n12,-1.51
CCCC(CC(=O)O)CC(=O)O,-0.675
CCOC(=O)N1CCN(CC(O)COc2ccccc2C(C)C)CC1 (configuration not stated),-0.454

(next part)
SMILES	BasE inh	LANA-nucl inh
COc1ccc2c(C(F)(F)F)cc(=O)oc2c1	3.0	-0.463
COc1ccc(-n2ncc3c(=O)n(CC(=O)N4CC(C)CC(C)C4)cnc32)cc1 (configuration not stated)	0.2	0.452
O=C(c1cc2ccccc2oc1=O)N1CCCC1	0.1	-0.459
O=C(O)C(O)C(O)c1nc2cc3ccccc3cc2[nH]1 (configuration not stated)	/	-0.198
O=C(O)C1CCN(C(=O)C(F)(F)F)CC1	/	-0.152
O=c1c2ccccc2nc(SCc2ccon2)n1Cc1ccccc1	0.1	/
COc1cc2ccccc2cc1C(=O)N1CCCN(C)c2nc3ccccc3nc21	3.0	/
COC(=O)c1ccc(C)c(NC(=O)c2ccncc2)c1	1.3	/

Among those listed so far, these have an aryl methoxy group.
SMILES	BasE inh	LANA-nucl inh
COc1ccc(CC(=O)Nc2cccc(-c3ccc(S(C)(=O)=O)nn3)c2)cc1	0.3	0.862
COc1cccc(C2CC(=O)N(c3ccccc3)C3=C2C(=O)CCC3)c1OC (configuration not stated)	3.2	0.355
COc1ccccc1NC(=O)Oc1ccc2ccncc2c1	0.8	/
COc1ccccc1C(=O)NCc1ccc2c(c1)cc(C)n2C	-0.6	-0.784
COC(=O)C1=C(CN2CCOCC2)NC(=O)NC1c1cccc(OC)c1 (configuration not stated)	-0.8	-0.279
COc1ccc(CNC(=O)C2=CC=CN3CCS(=O)(=O)N=C23)cc1	-1.6	/
CCN(CC)C1=NC(Cc2ccccc2)C(=O)N1c1ccccc1OC (configuration not stated)	-0.1	-0.0445
COc1cc(C#N)c2ccc3ccccc3c2c1	-2.9	/
COc1ccc(CCN=C(N)Nc2nc(C)cc(C)n2)cc1	-5.4	-0.117
COc1ccc(-c2cc(-c3ccccc3)c(C#N)c(S(=O)Cc3ccccc3)n2)cc1 (configuration not stated)	3.1	/
COc1ccc(NS(=O)(=O)c2ccc(C(=O)N(C)C)s2)cc1	-1.5	2.89
COc1ccccc1OC(C)C(=O)N(Cc1ccc(Cl)cc1)Cc1ccco1 (configuration not stated)	1.0	0.165
COc1cccc(-c2cc(C(=O)N3CCCC3)no2)c1	0.2	-0.546
COc1ccc2c(c1)sc1nc(-c3ccc(C)o3)c(NC3CCCCC3)n12	2.4	-1.51
COc1ccc2c(C(F)(F)F)cc(=O)oc2c1	3.0	-0.463
COc1ccc(-n2ncc3c(=O)n(CC(=O)N4CC(C)CC(C)C4)cnc32)cc1 (configuration not stated)	0.2	0.452
COc1cc2ccccc2cc1C(=O)N1CCCN(C)c2nc3ccccc3nc21	3.0	/
